# Screens as filed in PubChem BioAssay.
# Vaccinia Venus = vaccinia inhibition (Venus reporter). Potency, µM (highest dose often 36.5 µM), for the others: top-dose activity change, negative = inhibition, actives largely listed as inhibitors. Vaccinia virus Venus reporter expression, fluorescence. 330,000 compounds, 0.46% hits; active means well fitted inhibition curve with a large enough effect; inconclusive means small, poorly fitted or top-dose-only effect; inactive means no such curve, though single readings can be large or run the other way; tested in A549 cells; also: nearly all actives have a fitted effect of over 30% in size; inactives centre near -10
# VACV mCherry inh = inhibitors of vaccinia virus infection (mCherry reporter signal); Vaccinia virus mCherry reporter infection, fluorescence; about a quarter of the inactives have no number; Potency, µM (doses to about 36.5 µM), for the others: at the highest dose activity change, negative = inhibition, actives largely listed as inhibitors; 310,000 compounds, 0.63% hits; AID 720579; active = well fitted inhibition curve with a large enough effect; inconclusive = small, poorly fitted or top-dose-only effect; inactive = no such curve, though single readings can be large or run the other way; tested in A549 cells; also: nearly all actives have a fitted effect of over 35% in size; inactives centre near -10
# The depositor's hits bear a star; i = inactive; ? = inconclusive; · = no result given; [ ] = another dose, or the depositor's remark. % is scaled to controls: 0 for no effect and ±100 for the full control effect; potency is read from the fitted curve at half-maximal effect.
# Second line of a record – Vaccinia Venus	VACV mCherry inh
- Cc1ccc(NC(=O)CCNS(=O)(=O)c2ccc3c(c2)CCC(=O)N3)cc1F
→ -23%	i
- C[C@]1(O)CC(=O)C=C[C@H]1Nc1ccccc1
→ ?	?
- CCC(C)NS(=O)(=O)c1ccc(N)cc1 (centres undefined)
→ -4%	-18%
- COc1ccc(OC)c(NC(=O)CSc2nc(N3CCOCC3)nc(N3CCOCC3)n2)c1
→ -7%	i
- Cn1c(=O)c2sccc2n2c(CCC(=O)N3CCN(c4ccccc4)CC3)nnc12
→ -25%	-29%
- Cc1cc(NC(=O)c2ccccc2)ncc1NC(=O)c1cccs1
→ -10%	20%
- COc1ccc(C(C(=O)NC2CCCC2)n2c(Cc3cc(F)cc(F)c3)nc3ccccc32)cc1 (centres undefined)
→ -5%	-7%
- CC1(C)CC(C(N)=S)CCO1 (centres undefined)
→ -7%	i
- C[C@H](CO)N1C[C@H](C)[C@H](CN(C)C(=O)c2ccccn2)Oc2ncc(Br)cc2C1=O
→ -7%	-1%
- Cc1cccc2cc(CN(CC3CCCO3)C(=O)c3cccs3)c(=O)[nH]c12 (centres undefined)
→ 12%[7.34 µM]	0%[7.34 µM]
- COc1ccc(C(=S)N2CCNCC2)cc1
→ -8%	-18%
- CC(=O)c1ccc(NC(=S)NCc2cccnc2)cc1
→ -4%	i
- O=C(O)Cn1c2ccccc2c2n[nH]c(=S)nc21
→ -21%	i
- Cc1cc(S(=O)(=O)NC(C)C)ccc1OCC(=O)NCc1ccccc1
→ -17%	-12%
- CC(=NNC(=O)c1ccncc1)c1ccccc1O
→ ?	1.1µM*
- CCc1ccc(-n2nc(CO)c(C(=O)NCc3cccs3)n2)cc1
→ -6%	-13%
- Cc1noc(C)c1S(=O)(=O)NC(=O)C1(C)CCN1C(=O)c1ccc(C2CCCCC2)cc1 (centres undefined)
→ -5%	39%[activator]
- Cc1cc(C(F)(F)F)nc(CCNC(=O)C2CCC(=O)N(Cc3cccc(F)c3)C2)n1 (centres undefined)
→ -20%	0%
- Cc1c(C(=O)NCCC#N)sc(=O)n1Cc1ccc(C(=O)N(C)C)cc1
→ 2%	2%
- CCCCCC(=O)NN=C1CCN(Cc2ccccc2)CC1
→ -8%	i
- CCc1cccc(NC(=O)CN2CCCN(Cc3cccc(C)c3)S2(=O)=O)c1
→ -2%	-14%
- COc1ccc(CCNC(=O)c2cc3c(=O)n4ccccc4nc3n2C)cc1
→ -3%	-4%
- O=C1CN=C(c2ccccc2)c2cc(Br)ccc2N1Cc1cc(=O)n2ccccc2n1
→ -13%	-9%
- COc1ccccc1C1CC(=O)NC(SCC(=O)Nc2ccccc2)=C1C#N (centres undefined)
→ -21%	?
- COc1cc(C(=O)NCC(c2ccco2)N2CCOCC2)cc(OC)c1OC (centres undefined)
→ -3%	-12%
- CC(=O)Nc1ccc2c(c1)nc1n2CCN(C2CCCCC2)C1
→ -4%	11%
- COC(=O)C1=C(c2cccc(OC)c2OC)C[C@@H]2CC[C@H]1N2C(=O)NCc1ccc(C(F)(F)F)cc1
→ -15%	-7%
- Cc1c(S(=O)(=O)Nc2cccc3ccccc23)c(=O)n(C)c(=O)n1C
→ -10%	i
- O=C1c2ccccc2C(=O)C12OC2c1ccc(Cl)cc1Cl (centres undefined)
→ 0%	-14%
- CCc1ccccc1NC(=S)N(CCN(C)C)C(C)c1ccco1 (centres undefined)
→ -19%	-13%

# 5 compounds picked at random from those above:
# Second line of a record – Vaccinia Venus	VACV mCherry inh
- CC(=O)c1ccc(NC(=S)NCc2cccnc2)cc1
→ -4%	i
- COc1ccccc1C1CC(=O)NC(SCC(=O)Nc2ccccc2)=C1C#N (centres undefined)
→ -21%	?
- O=C1c2ccccc2C(=O)C12OC2c1ccc(Cl)cc1Cl (centres undefined)
→ 0%	-14%
- CCc1ccccc1NC(=S)N(CCN(C)C)C(C)c1ccco1 (centres undefined)
→ -19%	-13%
- CCC(C)NS(=O)(=O)c1ccc(N)cc1 (centres undefined)
→ -4%	-18%

# The list continues:
# Second line of a record – Vaccinia Venus	VACV mCherry inh
- Cc1occc1C(=O)NC(C)C1CCCO1 (centres undefined)
→ 0%	-10%
- CC[C@@H](NC(=O)Cn1cc(C)c(=O)[nH]c1=O)c1ccccc1
→ -3%	i
- Cc1cccc(N2CCN(C(=O)Cn3sc4nc(C)cc(C)c4c3=O)CC2C)c1 (centres undefined)
→ -27%	i
- COC(=O)CSc1[nH]c(=O)cc(C)c1C#N
→ -3%	·
- COc1ccc(CNC(=O)CN(C(=O)CCC(=O)Nc2nccs2)c2ccc(C)cc2)cc1
→ -10%	i
- COc1ccccc1/C=C1\SC(=S)N(CCC(=O)N2CCCCC2CCO)C1=O (centres undefined)
→ -29%	i
- CNC(=O)C1=C(C)n2c(nc3ccccc32)NC1c1ccc(OC)cc1 (centres undefined)
→ -10%	-7%
- CSc1ncc(Cl)c(C(=O)Nc2c(C(=O)c3ccc(C)c(F)c3)oc3ccccc23)n1
→ -4%	-6%
- S=C(NCc1cccnc1)Nc1cccc(Cl)c1
→ -20%	-16%[1.46 µM]
- O=C(CSCc1ccc(Cl)cc1)Nc1ccc(S(=O)(=O)N2CCOCC2)cc1
→ -20%	i
- COc1ccc(CC(=O)Nc2ccc3c(c2)CCC3)cc1
→ -10%	-19%
- Nc1nc(NCc2ccccc2)nc(NCc2ccccc2)c1[N+](=O)[O-]
→ -13%	-5%
- O=C(Nc1ccc(S(=O)(=O)N2CCCC2)cc1)C1CCCN1C(=O)c1cccs1 (centres undefined)
→ -3%	i
- O=C(CCC1CCCN(C(=O)Cc2ccc(F)cc2)C1)N1CCN(c2ccccn2)CC1 (centres undefined)
→ -8%	-10%
- Cc1noc(C)c1COC(=O)c1cc2ccccc2cc1O
→ -9%	?
- CC(C)N1CCC(C)(C(=O)Nc2ccccc2Oc2ccccc2)C1 (centres undefined)
→ 0%	3%
- O=C1CN2NC(=S)N(c3ccc(Cl)cc3)C2=CN1c1ccc(Cl)cc1
→ -9%	i
- Cc1ccc(-c2noc(CN(C)C(=O)Nc3ccc(F)cc3)n2)cc1
→ -5%	i
- CCCC(=O)NC(=S)N1CCN(c2ccc([N+](=O)[O-])cc2)CC1
→ -10%	i
- O=C(c1ccc(Cl)cc1)N(Cc1ccco1)Cc1ccco1
→ -1%	5%
- Cc1ccccc1C(=O)N/N=C/c1ccc(OCC(=O)N2CCCCC2)cc1
→ -22%	i
- Cn1c(SCC(=O)Nc2ccc3c(c2)CCC3)nnc1C1CC1
→ -4%	-20%
- COc1ccc(-c2nc3sc(CCNC(=O)c4ccc(C(C)(C)C)cc4)c(C)n3n2)cc1
→ -5%	-4%
- CN1CC=C(c2c[nH]c3ccccc23)CC1
→ -5%	i
- Cc1ccc(-c2nnc(NC(=O)CCS(=O)(=O)c3ccc(F)cc3)o2)c(C)c1
→ -15%	-21%
- CCOc1ccc(-c2noc(CCC(=O)NC3CCCCC3)n2)cc1OC
→ 6%	-10%
- COc1ccc(NC(=O)C(NS(=O)(=O)c2cccc3nsnc23)C(C)C)cc1 (centres undefined)
→ 14%	-10%
- O=C1c2cccnc2C(=O)N1Cc1ccc(S(=O)(=O)N2CCN(c3ccccc3)CC2)cc1
→ -8%	-17%
- O=C(Nc1ccc(-n2cnnn2)cc1)C1CCCCC1
→ -16%	·
- O=C(NCc1ccc(Cl)cc1)NC1COc2ccccc2C1 (centres undefined)
→ -9%	-10%

# In a second layout: entries from further up
CC1(C)CC(C(N)=S)CCO1 (centres undefined)
  Vaccinia Venus: -7%
  VACV mCherry inh: i

C[C@H](CO)N1C[C@H](C)[C@H](CN(C)C(=O)c2ccccn2)Oc2ncc(Br)cc2C1=O
  Vaccinia Venus: -7%
  VACV mCherry inh: -1%

# (continued)
# Second line of a record – Vaccinia Venus	VACV mCherry inh
- C=CCn1c(NCc2cc(Cl)ccc2O)nc2ccccc21
→ ?	-27%
- CSC1CCCCC1(O)CSc1nc2c(cc1C#N)CCCC2 (centres undefined)
→ -7%	-10%
- CCn1nc(C)c(Br)c1C(=O)Sc1ccccc1Cl
→ -3%[7.34 µM]	i[7.34 µM]
- CC(C)NC(=O)NC(=O)COC(=O)Cc1c(F)cccc1Cl
→ -10%	i
- CCC1=C/C(=C/c2sc3ccccc3[n+]2CC)CC(C)(C)C1
→ -10%	-4%
- CC(=O)C1=C(O)C(=O)N(c2cccc(Br)c2)C1c1ccccc1Cl (centres undefined)
→ -13%	0%
- O=C(Nc1ccc([N+](=O)[O-])cc1Cl)c1ccccc1O
→ ?	?
- Cc1ccccc1CC(=O)NC1CCN(C)CC1
→ -13%	-24%
- Cc1nc2nc(CNC(=O)c3cccc(F)c3)nn2c(C)c1CCC(=O)Nc1ccc(F)cc1
→ 3%	9%
- COc1ccc(C(CNc2ccc(S(C)(=O)=O)cc2[N+](=O)[O-])N(C)C)cc1OC (centres undefined)
→ -7%	-12%
- CCOc1ncccc1C(=O)OCC(=O)Nc1cc(C(C)(C)C)ccc1OC
→ -12%	-19%
- C#CCOCCOCCOCCNc1nc(N2CCN(C(=O)CCCCCCCCCCNC(=O)Cn3cc(CCCCCN)nn3)CC2)nc(N2CCN(C(=O)CCCCCCCCCCNC(=O)[C@H]([C@@H](C)CC)n3cc(CCCCCN)nn3)CC2)n1
→ 10µM*	?
- NC(N)=N/N=C/c1ccccc1OC(F)F
→ -2%	-15%
- O=Cc1ccc(F)c([B-](F)(F)F)c1
→ 0%	i
- COc1ccccc1CNC(=O)c1ccc2c(c1)N(Cc1cc(C)ccc1C)C(=O)c1ccccc1S2
→ -13%	-20%
- Cc1ccc(-c2nn(CC(=O)NCCN3CCOCC3)c(=O)c3ccccc23)cc1
→ -18%	·
- O=C1C=C(NC(=O)Nc2ccc(Cl)c(Cl)c2)CCC1
→ -4%	1%
- COc1cccc(CN(C)C(=O)Nc2cccc(C(F)(F)F)c2)c1OC
→ -20%	-17%
- COc1ccc(NC(=O)CSc2nc3ccccc3c(=O)n2CCC(=O)NC2CCCCC2)c(OC)c1
→ -5%	-7%
- CCCNC(=O)C1CN(S(=O)(=O)c2ccc(C)cc2)c2ccccc2O1 (centres undefined)
→ -22%	-5%
- Cc1ccc(C)c(N2CCN(C(=O)CCc3nc(-c4ccc(Cl)cc4)no3)CC2)c1
→ -11%	i
- COC(=O)c1ccc(OC(=O)CCc2cc(OC)c(OC)c(OC)c2)cc1
→ -3%	i
- CC12COC3(C(=O)Nc4nccs4)CC1CCC32C (centres undefined)
→ -4%	-17%
- COc1ccc(CNC(=O)C2CC(c3ccc(C(F)(F)F)cc3)=NO2)cc1 (centres undefined)
→ -19%	?
- CN1CCN(c2cc(N3CCCCCC3)c(F)cc2[N+](=O)[O-])CC1
→ -30%	?
- CC(C)(C)c1ccc2c(c1)N(CC(=O)NCCCN1CCN(c3ccccc3F)CC1)C(=O)CO2
→ -24%	-24%
- O=C1c2nccnc2C(=O)N1c1ccc(F)cc1
→ -1%	-8%
- CC(=O)Nc1ccccc1-c1nc2ccc(C(=O)N3CCN(c4cccc(C)c4)C(C)C3)cc2[nH]c1=O (centres undefined)
→ -5%	15%
- Cc1nn(CC(=O)Nc2nnc(CC(=O)N3CCCC3)s2)c(=O)c2ccccc12
→ -11%	-18%
- CCN1C(=O)C2(C(C(=O)c3ccc(C)o3)=C(O)C(=O)N2CCCN(C)C)c2ccccc21 (centres undefined)
→ 14%	-23%
- CCOCCOC(=O)C(C)Sc1n[nH]c(=O)[nH]c1=O (centres undefined)
→ -8%	·
- O=C(NCC(c1ccco1)N1CCCC1)c1ccc(Cl)c(S(=O)(=O)N2CCc3ccccc32)c1 (centres undefined)
→ ?	?
- COc1ccccc1-c1c(C#N)c(N)nc2c1CCC2
→ -12%	-27%
- CCCC(c1nnnn1CC(=O)OCC)N(Cc1cc2c(C)cc(C)cc2[nH]c1=O)C1CCCC1 (centres undefined)
→ ?	·
- CC(=O)Nc1ccc(Nc2c([N+](=O)[O-])c(=O)n(-c3ccccc3)c3ccccc23)cc1
→ 3%	-8%
- Cc1cc(=O)[nH]c(Nc2c(C)n(C)n(-c3ccccc3)c2=O)n1
→ -15%	·
- C=CCn1c(SCC(=O)NC)nnc1C12CC3CC(CC(C3)C1)C2
→ -1%	-13%
- Nc1nc2ccc(C(=O)Nc3ccc(N4CCOCC4)cc3)cc2s1
→ -7%	-5%
- COc1ccc(NC(=O)CSc2oc(-c3cccs3)nc2S(=O)(=O)c2ccccc2)c(OC)c1
→ ?	?
- CCOC(=O)c1ccc(N=C2SC(C(=O)NCCc3ccccc3)CC(=O)N2C)cc1 (centres undefined)
→ -3%	0%
- Cc1cc(C(=O)Nc2cccc(-c3nc(CNC(=O)c4ccc[n+]([O-])c4)c(C)o3)c2)c(C)o1
→ 4%	-4%
- O=C(NCCCC(=O)N1CCCCC1)c1ccc(Cl)cc1
→ -4%	-14%
- CCCCN(C)C(=O)c1cc2cc([N+](=O)[O-])cc(OC)c2oc1=O
→ -20%	-5%
- CCCCNC(=S)NNC(=O)C1=NN(c2cc(C)ccc2C)C(=O)CC1
→ -15%	-3%
- Cn1[nH]c2c(c1=O)[C@H](c1ccc(F)cc1)O[C@H](CCc1ccccc1)C2
→ -8%	i
- CCOc1ccc(CCNC(=O)COc2cccc(-n3cnnn3)c2)cc1OCC
→ -9%	-18%
- O=C(Cc1ccc(F)cc1)Nc1c2c(nn1-c1cccc(Cl)c1)CS(=O)C2 (centres undefined)
→ 0%	-7%
- COc1cccc(CNC(=O)C2CCC(CNS(=O)(=O)c3cccc4nsnc34)CC2)c1 (centres undefined)
→ -14%	i
- CC(C)N1C(=O)CCC1C(=O)N1CCC(Cc2ccccc2)CC1 (centres undefined)
→ -12%	i
- COC(=O)c1sccc1N/N=C/c1ccc(OC)c(OC)c1OC
→ -17%	-25%

# No enrichment for hits; any-hit rate near 0.82%.
